GLA inh pH 4.5: qHTS Assay for Inhibitors of Human alpha-Galactosidase at pH 4.5 | Alpha-galactosidase A (Homo sapiens), P06280 | purified enzyme, 4-MU-alpha-Gal fluorescence, pH 4.5 | activity change, negative = inhibition, % at 105 µM | 230,000 tested, under 10 active | AID 1467, 2008; inconclusive = small, poorly fitted or top-dose-only inhibition, or a rising curve; inactive = flat fitted curve, though single readings scatter; no compound was filed as active;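 note: 0% = full activity with enzyme and -100% = basal without enzyme; dose as in the result columns while the protocol names 77 µM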
Target sequence (P06280 whole entry, looked up): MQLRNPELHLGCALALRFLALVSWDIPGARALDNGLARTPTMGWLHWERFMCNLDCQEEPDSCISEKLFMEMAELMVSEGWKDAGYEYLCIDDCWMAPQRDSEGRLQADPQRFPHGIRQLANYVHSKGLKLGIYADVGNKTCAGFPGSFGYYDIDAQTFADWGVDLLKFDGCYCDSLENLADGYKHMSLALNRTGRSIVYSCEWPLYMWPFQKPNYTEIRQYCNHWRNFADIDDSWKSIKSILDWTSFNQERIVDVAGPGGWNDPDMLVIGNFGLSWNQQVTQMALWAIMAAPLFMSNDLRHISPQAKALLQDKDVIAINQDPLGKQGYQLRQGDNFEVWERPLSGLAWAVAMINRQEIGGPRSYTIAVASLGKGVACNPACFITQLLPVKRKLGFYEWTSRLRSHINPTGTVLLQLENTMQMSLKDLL
An asterisk follows results filed as active; & = joins results of further samples. Not all compounds are listed; count on the stated rates, not on these rows.

SMILES	GLA inh pH 4.5
COC(=O)[C@@]1(Cc2ccc(F)cc2)[C@H]2c3cc(C(=O)N(C)C)n(C)c3C[C@H]2CN1C(=O)c1ccccc1	-1
CO[C@]1(NC(=O)C(C(=O)O)c2ccc(O)cc2)C(=O)N2C(C(=O)O)=C(CSc3nnnn3C)COC21 (stereo partly specified)	6
COC(=O)[C@@H]1C[C@H]1[C@@H](NC(=O)c1cccnc1)c1ccccc1	0
COc1cccc([C@@H]2Oc3ccc(Br)cc3C(=O)[C@H]2O)c1	-1
CN(Cc1ccco1)c1ncnc2ccc(-c3cccnc3)cc12	6
CN(Cc1ccco1)c1ccnc(-c2cccc(NS(C)(=O)=O)c2)n1	4
COc1ccccc1N1CCN(CCN2C(=O)c3ccccc3C(C)(C)C2=O)CC1	-4
COC(=O)c1ccc(C(NC(=O)OCc2ccccc2)/C(=C/[C@@H](C)C(=O)NCCc2c[nH]c3ccccc23)c2cccnc2)cc1 (stereo partly specified)	-2
CC(C)C1COc2cc3oc(=O)ccc3cc2O1 (stereo unspecified)	6
CC(C)(C)NCC(O)c1ccc(O)c(CO)c1 (stereo unspecified)	-3&-7&10&2
COc1ccc2c(c1)O[C@@H](c1cccc(C(F)(F)F)c1)[C@H](OC(=O)NCCOc1ccccc1)C2=O	-2
Cc1nc(N2CCOCC2)c2nc(-c3ccccc3)n(CCCN(C)C)c2n1	4
CCCCNc1nc(C)nc2c1nc(-c1ccccc1)n2C(C)CCCN(CC)CC (stereo unspecified)	-9
O=c1c(-c2cc(O)c(O)c(O)c2)coc2cc(O)c(O)c(O)c12	1
CCCC[C@@H]1C[C@H]1C(NC(=O)c1cccnc1)c1ccc(-c2ccccc2)cc1 (stereo partly specified)	1
CO/N=C(/C(=O)N[C@H]1C(=O)N2C(C(=O)O)=C(COC(C)=O)CSC12)c1csc(N)n1 (stereo partly specified)	-1
NCCCCCCNS(=O)(=O)c1cccc2ccccc12	1
FC(F)(F)c1ccccc1-c1nc(Nc2ccncc2)c2ccccc2n1	-5
C=CCCCCCCCCC(=O)O	-9
CCCCC/C=C\C/C=C\CCCCCCCCCC(=O)NCCCC(=O)O	-3
CC1(C)CC2C1CC[C@]1(C)CCC3C(C(=O)O)CC(=O)O[C@]32C1 (stereo partly specified)	-1
C[C@@H]1C[C@H](OC(=O)[C@@H](O)c2ccccc2)CC(C)(C)N1C	3
CC1=C(C(=O)O)N2C(=O)C(NC(=O)C(N)C3=CCC=CC3)C2SC1 (stereo unspecified)	1
CC1CC[C@@]2(OC1)OC1CC3C4CC[C@H]5CC(O)CC[C@@]5(C)C4CC[C@]3(C)C1C2C (stereo partly specified)	4
N[C@H](CCC(=O)N[C@H](CSN=O)C(=O)NCC(=O)O)C(=O)O	-13
Cc1cc(O)cc(O)c1C(=O)OC1(C)C(=O)C=C2C=C(/C=C/CO)OC=C2C1=O (stereo unspecified)	-5
CC(=O)O[C@]1(C)CC[C@]23CC1C(C)(C)C2CC[C@@H]3C (stereo partly specified)	-3
O=C(O)CCCC[C@H]1SC[C@H]2NC(=O)N[C@@H]21	-5
COC(=O)C1=C(C(=O)OC)[C@@H]2N(C)c3ccccc3[C@@]23C[C@@H](C(=O)OC)N(S(=O)(=O)c2ccc([N+](=O)[O-])cc2)C3=N1	6
O=c1c(-c2ccccc2)coc2cc(O)cc(O)c12	5
COc1cc(C(CCN2CCOCC2)c2c(OC)cc(OC)c3ccc(=O)oc23)cc(OC)c1OC (stereo unspecified)	-15
Cc1cccc(COC[C@H](Cc2ccccc2)N2CCN(C(=O)c3cccc(C)c3)CCC2=O)c1	-10
C=C1C[C@@]23C[C@@]1(O)CCC2[C@@]12C=CC(O)[C@](C)(C(=O)O1)C2C3C(=O)O (stereo partly specified)	3
C=C1c2cccc(C(F)(F)F)c2O[C@H](C(=O)OCC)C1OC (mixture of isomers)	-6
COc1ccc2c(c1)O[C@@H](c1cccc(C(F)(F)F)c1)[C@H](OC(=O)NS(=O)(=O)c1ccc(F)cc1)C2=O	0
CC[C@H](C)[C@@H](NC(=O)O[C@H]1C(=O)c2cc(OC)ccc2O[C@@H]1c1ccc(OC)c(Br)c1)C(=O)OC	-7
CC1CCC(C(C)(C)O)CC2=C1CCC2C (stereo unspecified)	-3
CC(=O)OC1CC2C(C)(C)C(=O)CC[C@]2(C)C2CC[C@@]3(C)C(c4ccoc4)OC(=O)C4OC43[C@]12C (stereo partly specified)	-8
O=C(NC(Cc1cc(=O)[nH]c2ccccc12)C(=O)O)c1ccc(Cl)cc1 (stereo unspecified)	-10
CC(C)(C)OC(=O)NCCCC1=CC2=CC(=O)C(C)(OC(=O)c3cccs3)C(=O)C2=CO1 (stereo unspecified)	9
C[Si](C)(C/C=C/CC[C@H](O)C1=CCCCC1=O)c1ccccc1	-1
CCC(C=C[C@@H]1OC(=O)C=C[C@H]1C)=C[C@H](C)CC=CC(C)=C[C@@H](C)C(=O)[C@@H](C)[C@H](O)[C@@H](C)CC(C)=CC(=O)O	-2
CC(=O)N[C@@H](CSC(=O)[C@]1([C@@H](O)C(C)C)NC(=O)[C@H](C)[C@@H]1O)C(=O)O	-7
COC(=O)[C@@]1(Cc2ccccc2)[C@H]2c3cc(C(=O)N4CCCC4)n(C)c3C[C@H]2CN1C(=O)c1ccccc1	1
O=C1c2c(O)cc(O)cc2OC(c2ccc(O)c(O)c2)C1O (stereo unspecified)	-4&2
CCN(c1ccccc1)c1cc(NC)[n+](C)c(C)n1	0
CC(O)C#C[Si](C)(C)c1ccccc1 (stereo unspecified)	2
CCN(CC)CCn1c(-c2ccccc2)nc2c(NCCOC)nc(C)nc21	1
CC1CN(S(=O)(=O)c2cccc3cnccc23)CCN1 (stereo unspecified)	-3
COC(=O)C1(CC(C)C)C=C2C(=C(c3ccccc3)C(=O)C2C)CN1 (stereo unspecified)	3
CCCCCCCC(=O)OC[C@H](CO)OC(=O)CCCCCCC	-2
COC(=O)[C@@]1(Cc2ccc(F)cc2)[C@H]2c3cc(C(=O)N4CCCC4)n(CCSCCO)c3C[C@H]2CN1C(=O)c1ccccc1	0
COC(=O)[C@@H]1C[C@@]1(C)[C@@H](NC(=O)OCc1ccccc1)c1ccccc1	-6
CCC[C@H]1C[C@H](C(=O)N[C@H]([C@@H]2O[C@H](SC)[C@@H](O)[C@H](O)[C@@H]2O)[C@H](C)O)N(C)C1	0
O=P1(O)Oc2c(c(-c3ccccc3)cc3ccccc23)-c2c(-c3ccccc3)cc3ccccc3c2O1	-16
OCC(O)C(O)C(O)CO (stereo unspecified)	-2&10
CCC(C(=O)O)c1ccccc1 (stereo unspecified)	2
C=CC1=C(C)C2=Cc3c(C=C)c(C)c4[n]3[Sn+2][n]3c(c(C)c(CCC(=O)O)c3=CC3=NC(=C4)C(C)=C3CCC(=O)O)=CC1=N2	-10
CN1C[C@H](C(=O)N[C@]2(C)O[C@@]3(O)[C@H]4CCCN4C(=O)[C@H](Cc4ccccc4)N3C2=O)C[C@H]2c3cccc4[nH]cc(c34)C[C@@H]21	-18
N#Cc1ccccc1OC[C@H](O)CNCCNC(=O)Nc1ccccc1	-1

The results go on:
SMILES	GLA inh pH 4.5
CC(=O)N[C@@H](CC(C)C)C(=O)O	-2
COC(=O)[C@@H]1C[C@H]1[C@@H](NC(C)=O)c1ccccc1	0
COc1cccc([C@@H]2Oc3ccc(Br)cc3C[C@H]2OC(=O)NCCc2ccc(OC)c(OC)c2)c1	3
O=C1C(CCC(O)c2ccc(F)cc2)C(c2ccc(O)cc2)N1c1ccc(F)cc1 (stereo unspecified)	1
COC(=O)[C@@]1(Cc2ccccc2)[C@H]2c3cc(C(=O)N(C)C)n(Cc4ccc(O)c(OC)c4)c3C[C@H]2CN1C(=O)c1ccccc1	-1
c1ccc2c(Nc3ccncc3)nc(-c3ccc4c(c3)OCO4)nc2c1	0
NCCNC(=O)c1ccc(Cl)cc1	4&-1
COC1=C(C(=O)c2ccccc2)C(=O)C2(CC=C(C)C)C[C@H](C(=O)OCC(F)(F)F)C(C)(C)[C@@]1(CC=C(C)C)C2=O (tested in a mixture with another compound)	-6
CC1CC[C@@]2(C(=O)O)CCC3(C)C(=CCC4[C@]5(C)CC(O)C(O)[C@](C)(CO)C5C(O)C[C@@]43C)C2C1C (stereo partly specified)	-6
COC(=O)c1ccc(C(NC(=O)OCc2ccccc2)/C(F)=C/[C@@H](C)C(=O)NCc2cc(F)cc(F)c2)cc1 (stereo partly specified)	5
C=CCNC(=O)N1CCc2nc(-c3ccccc3)c3c(c2C1)CO[C@@H](C)C3	8
C[C@@H]1CCC2[C@@H](C)[C@@H](O)O[C@@H]3O[C@@]4(C)CC[C@@H]1[C@@]23OO4 (stereo partly specified)	9
O=C(O)C(Oc1ccc2ccc(=O)oc2c1)c1ccccc1 (stereo unspecified)	-8
C[C@@H](CN1c2ccccc2Sc2ccccc21)N(C)C	0
C[C@@]12CC(=O)C3=C(CCCC3=O)N1CCc1ccccc12	1
CC(C)C[C@@H](CC(=O)N[C@@H](CCC(=O)O)CC(=O)O)NC(=O)[C@@H]1CCCC[C@H]1NC(=O)C[C@@H](NC(=O)C[C@H](Cc1ccccc1)NC(=O)[C@@H]1CCCC[C@H]1N)C(C)C	-9
COc1ccc(-c2nc3c(c4c2C[C@H](c2ccccc2)OC4)CN(C(=O)c2cccnc2)CC3)c(C)c1	-6
O=C1CCCCC2CCCCN12 (stereo unspecified)	2
COC(=O)CC1c2ccccc2C(Cc2ccc3c(c2)OCO3)=C(C)N1C(=O)OC (stereo unspecified)	-11&2
CC(C)CC1NC(=O)C(CCCN)NC(=O)C(C(C)C)NC(=O)C2CCCN2C(=O)C(Cc2ccccc2)NC(=O)C(CC(C)C)NC(=O)C(CCCN)NC(=O)C(C(C)C)NC(=O)C2CCCN2C(=O)C(Cc2ccccc2)NC1=O (stereo unspecified)	-7
CCCCCC1OC1C/C=C\C/C=C\C/C=C\CCCC(=O)O (stereo unspecified)	-4
CC(=O)OC1CC2C(C)(C)CCC(=O)[C@@]2(C)C2CC[C@@]3(C)C(c4ccoc4)OC(=O)C4OC43[C@]12C (stereo partly specified)	2
COC(=O)C1=C(C)NC(C)=C(C(=O)OCCNCc2ccccc2)C1c1cccc([N+](=O)[O-])c1 (stereo unspecified)	-13
OCCN1CCN(CCCN2c3ccccc3C=Cc3ccccc32)CC1	-3&-7
CC(=O)Nc1ccc(-c2nc3ccc(Cl)cc3[nH]2)cc1	-9
CCCCCCCCCCCCC/C=C/[C@@H](O)[C@H](CO)NC(=O)CCCCCCC	-5
CNC[C@H](O)[C@H](O)[C@H](O)[C@H](O)CO	2
CC1(O)/C=C\C=C(\CO)C2CC(C)(C)C2(O)CC1 (stereo unspecified)	2
CC(=O)C[C@H](c1ccc([N+](=O)[O-])cc1)c1c(O)c2ccccc2oc1=O	-6
CC(=O)OC1CC[C@@]2(C)C3=CC(=O)[C@]4(C)C(CC5OC6(OCC(C)CC6Br)C(C)C54)C3CC[C@H]2C1 (stereo partly specified)	7
[N-]=[N+]=NCC1OC(n2cnc3c(=O)[nH]c(N)nc32)C(O)C1O (stereo unspecified)	1
CCCCCC(O)/C=C/C=O (stereo unspecified)	-12
CC(S)C(=O)NCC(=O)O (stereo unspecified)	-8
CC(C)NC[C@H](O)c1cc(O)cc(O)c1	4
C=C(Nc1ccc(OC)cc1)C(=O)OC	3
Nc1ccc(CCNc2ncnc3c2ncn3C2OC(CO)C(O)C2O)cc1 (stereo unspecified)	-6
CC1=CC(=O)[C@@H]2C[C@H]1C2(C)C	-1
Cc1ccc(-c2nn(CC(C)(C)C)c3ncnc(N)c23)cc1	-3
CCCn1c(C)nc2c(NCC3CCCN3CC)nc(C)nc21 (stereo unspecified)	3

An excerpt from further up, for reference:
SMILES	GLA inh pH 4.5
C[C@@H](CN1c2ccccc2Sc2ccccc21)N(C)C	0
C[C@@]12CC(=O)C3=C(CCCC3=O)N1CCc1ccccc12	1
CC(C)C[C@@H](CC(=O)N[C@@H](CCC(=O)O)CC(=O)O)NC(=O)[C@@H]1CCCC[C@H]1NC(=O)C[C@@H](NC(=O)C[C@H](Cc1ccccc1)NC(=O)[C@@H]1CCCC[C@H]1N)C(C)C	-9
COc1ccc(-c2nc3c(c4c2C[C@H](c2ccccc2)OC4)CN(C(=O)c2cccnc2)CC3)c(C)c1	-6
O=C1CCCCC2CCCCN12 (stereo unspecified)	2
COC(=O)CC1c2ccccc2C(Cc2ccc3c(c2)OCO3)=C(C)N1C(=O)OC (stereo unspecified)	-11&2
CC(C)CC1NC(=O)C(CCCN)NC(=O)C(C(C)C)NC(=O)C2CCCN2C(=O)C(Cc2ccccc2)NC(=O)C(CC(C)C)NC(=O)C(CCCN)NC(=O)C(C(C)C)NC(=O)C2CCCN2C(=O)C(Cc2ccccc2)NC1=O (stereo unspecified)	-7
CCCCCC1OC1C/C=C\C/C=C\C/C=C\CCCC(=O)O (stereo unspecified)	-4
CC(=O)OC1CC2C(C)(C)CCC(=O)[C@@]2(C)C2CC[C@@]3(C)C(c4ccoc4)OC(=O)C4OC43[C@]12C (stereo partly specified)	2
COC(=O)C1=C(C)NC(C)=C(C(=O)OCCNCc2ccccc2)C1c1cccc([N+](=O)[O-])c1 (stereo unspecified)	-13
OCCN1CCN(CCCN2c3ccccc3C=Cc3ccccc32)CC1	-3&-7
CC(=O)Nc1ccc(-c2nc3ccc(Cl)cc3[nH]2)cc1	-9
CCCCCCCCCCCCC/C=C/[C@@H](O)[C@H](CO)NC(=O)CCCCCCC	-5
CNC[C@H](O)[C@H](O)[C@H](O)[C@H](O)CO	2
CC1(O)/C=C\C=C(\CO)C2CC(C)(C)C2(O)CC1 (stereo unspecified)	2

Screens deposited in PubChem BioAssay by National Center for Advancing Translational Sciences (NCATS).
